Compound activity as filed in PubChem BioAssay.
TRPML1 blocker – inhibitors of human TRPML1 channel. Q9GZU1. TRPML1-inducible cells, Ca2+ dye fluorescence, FDSS; stronger effect = lower value; inhibition of EC80 agonist-evoked calcium signal. hit rate 0.02% among 390,000. activity change, negative = inhibition, % (no concentration beside the values); in the data active means activity change below about -50%; inconclusive means about -30% to -50%; inactive means above about -30%;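 also: stimulus is agonist 54-4 at its EC80 concentration; % is scaled to controls: 0 for no effect and ±100 for the full control effect; compound concentration not given in the record; the text of the record puts the active cut at -80%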
Target sequence (Q9GZU1 whole entry, looked up): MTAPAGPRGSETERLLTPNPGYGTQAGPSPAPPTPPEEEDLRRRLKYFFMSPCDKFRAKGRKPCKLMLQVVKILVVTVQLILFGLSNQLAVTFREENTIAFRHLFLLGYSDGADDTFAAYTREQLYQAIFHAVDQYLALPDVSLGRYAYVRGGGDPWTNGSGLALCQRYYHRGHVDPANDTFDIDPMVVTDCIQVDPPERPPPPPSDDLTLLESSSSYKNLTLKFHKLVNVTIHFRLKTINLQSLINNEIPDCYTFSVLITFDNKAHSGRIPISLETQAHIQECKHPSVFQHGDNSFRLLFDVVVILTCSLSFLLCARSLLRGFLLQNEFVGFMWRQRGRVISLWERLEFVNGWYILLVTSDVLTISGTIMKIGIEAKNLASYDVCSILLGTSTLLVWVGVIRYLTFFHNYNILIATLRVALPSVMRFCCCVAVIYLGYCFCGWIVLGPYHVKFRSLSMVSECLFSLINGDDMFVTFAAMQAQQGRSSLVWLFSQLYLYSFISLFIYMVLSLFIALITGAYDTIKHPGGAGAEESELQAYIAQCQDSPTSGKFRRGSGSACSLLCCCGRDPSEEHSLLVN
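Tet-induced TRPML1-DL cells loaded with Ca8 no-wash calcium dye were read kinetically on FDSS. Compound addition was followed by EC80 agonist 54-4 (4 uM final); inhibition was read over 110 s.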
Six1-Eya2 blk – blocks human Six1 binding to Eya2. Q15475+O00167. AlphaScreen GST-Six1/His-Eya2 binding, biochemical; stronger effect = lower value; control for the full effect not named in the record. activity change, % (no concentration beside the values). hit rate 0.56% among 360,000; in the data active = activity change below about -65%; inconclusive = about -30% to -65%; inactive = above about -30%; also: % is scaled to controls: 0 for no effect and ±100 for the full control effect; compound concentration not given in the record
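AlphaScreen with GST-Six1 and His-Eya2 (5X mix: 250 nM and 500 nM), glutathione donor and nickel acceptor beads; buffer 50 mM Tris pH 8.0, 300 mM NaCl, 1 mM TCEP; 1 h at 37 C in the dark.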
CtBP-E1A inh – CtBP/E1A binding inhibition; hit rate 0.49% among 340,000; AlphaScreen GST-E1A/His-CtBP binding, 1536-well; stronger effect = lower value; control for the full effect not named in the record; AID 651724; activity change, % (test concentration not listed); in the data active means activity change below about -65%; inconclusive means about -30% to -65%; inactive means above about -30%; also: % is scaled to controls: 0 for no effect and ±100 for the full control effect; compound concentration not given in the record
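In 5 uL wells, 23 nL compound meets equimolar GST-E1A and His-CtBP (5X stock 125 nM each) for 2 h, 37 °C. Beads (5X, 50 ug/mL) then 1 h, 37 °C, dark.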
D2 potentiator – potentiates the human D2 dopamine receptor allosterically; hit rate 0.23% among 360,000; potentiation, % (concentration not given with the values); P14416; AID 624464; DiscoveRx D2 beta-arrestin cells, luminescence, 90 min; 100% = 57 uM dopamine signal; active = potentiation of 50% or more; inconclusive = 30% to 50%; inactive = 30% or less;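 also: compound concentration not given in the record; tested on top of an EC20 dose of dopamine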
Target sequence (P14416 whole entry, looked up): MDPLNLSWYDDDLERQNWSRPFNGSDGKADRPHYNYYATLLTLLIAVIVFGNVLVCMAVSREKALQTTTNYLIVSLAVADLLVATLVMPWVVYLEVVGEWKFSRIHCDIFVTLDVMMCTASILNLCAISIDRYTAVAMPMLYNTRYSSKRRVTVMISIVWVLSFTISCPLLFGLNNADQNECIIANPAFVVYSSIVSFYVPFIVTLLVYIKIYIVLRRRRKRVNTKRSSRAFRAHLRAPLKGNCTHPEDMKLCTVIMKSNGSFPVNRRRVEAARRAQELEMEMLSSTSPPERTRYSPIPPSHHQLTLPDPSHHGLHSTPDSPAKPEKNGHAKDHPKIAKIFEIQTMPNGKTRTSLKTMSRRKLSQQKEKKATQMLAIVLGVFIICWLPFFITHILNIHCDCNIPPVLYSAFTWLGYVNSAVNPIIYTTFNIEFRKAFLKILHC
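D2 cells co-treated with compound plus 50 nM dopamine (EC20) for 90 min at 37 deg C to detect potentiation. Beta-arrestin recruitment was read as enzyme-fragment luminescence after 1 h at ambient temperature. Full response was set by 57 uM dopamine.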
TRPV1 PAM – potentiators of human vanilloid receptor 1 (TRPV1). Q8NER1. TRPV1-expressing cells, Fluo-8 calcium influx, capsaicin EC20 potentiation; host cell line not named in the record; control for the full effect not named in the record. potentiation, % at 8.33 µM. hit rate 0.02% among 320,000. AID 540277; active means potentiation above 80%; inconclusive means 30% to 80%; inactive means below 30%; also: 0% is about no effect
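Fluo-8 calcium influx in TRPV1-expressing cells, kinetic read (ex 480/em 520 nm). Compound added and read 3 min for agonist activity, followed by capsaicin at EC20 final and 2 min further read for enhancement.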
TRPML1 agonist – human mucolipin-1 channel agonism; TRPML1-expressing cells, Ca2+ dye fluorescence, FDSS; host cell line not named in the record; reference of the full effect not given here; activation, % (concentration not given with the values); hit rate 0.12% among 410,000; in the data active = activation above about 50%; inconclusive = about 30% to 50%; inactive = below about 30%; also: 0% is about no effect; the text of the record puts the active cut at 80%
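Tet-induced TRPML1-DL cells, 1,500 per well, cultured overnight, were loaded with a no-wash Ca2+ dye for 45–90 min. Calcium fluorescence was recorded on the FDSS for 110 s after compound addition, before the EC80 agonist (4 uM 54-4) was added.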
The depositor's hits bear a star; ? = inconclusive; . = not tested or not shown; & = joins results of further samples. The order is random. Share with any hit: about 0.95%.

Every second line gives: TRPML1 blocker, Six1-Eya2 blk, CtBP-E1A inh, D2 potentiator, TRPV1 PAM, TRPML1 agonist
- CC1=Nc2ccccc2N=C(NC(=O)/C=C/C(=O)O)C1c1ccccc1 (stereo not drawn)
  9, 3, 5, -1, -3, 0.4
- CC(=O)CCS(=O)(=O)c1ccc(Oc2ccc(S(=O)(=O)CCC(C)=O)cc2)cc1
  14, 2, 0, -24, 2, 0.5
- CN1c2ccccc2-c2nc3ccccc3n2C1c1ccco1 (stereo not drawn)
  0, -2, -4, -7, -11, 0.0
- CC(=O)c1c(C)[nH]c(C(=O)Nc2ccccc2Cl)c1C
  ?, -16, -3, -3, -13, 0.5
- COCCNc1nc(NCCCN2CCCC2=O)c2sc(-c3ccccc3)cc2n1
  ., ?, ?, -14, ., -1.0
- COc1cc(OC)cc(C(=O)NNC(=O)C(=O)Nc2cc(OC)c(Cl)cc2OC)c1
  0, -9, -24, 3, -21, 0.9
- Cc1nnc(SCc2ccon2)n1-c1ccccc1
  15, 2, 15, 0, 20, 5.0
- Cc1ccc(/C=C2\SC(=S)N(CCCC(=O)Nc3ccccc3C(=O)O)C2=O)cc1
  14, -9, -8, -7, -6, 0.4
- O=C1CN(C(=O)COC(=O)CCC(=O)c2ccc(F)cc2)c2ccccc2N1
  25, -2, 8, -3, ., -0.1
- CC(=O)Nc1cc(ON=C(C)C)cc([N+](=O)[O-])c1
  25, 0, -3, -18, -6, 1.5
- CC(CCc1ccccc1)NC(=O)c1ccc2nc(N3CCOCC3)sc2c1 (stereo not drawn)
  -8, -2, -1, -4, 5, -0.7
- Cc1ccc(-n2nc3c(=O)n(CCCC(=O)NCc4ccccc4C)nc(C)c3c2C)cc1
  1&-1, 14, ., -5, 12, 0.5&2.9
- NNC(=O)CNS(=O)(=O)c1ccc([N+](=O)[O-])cc1
  9, 6, 0, 15, -8, 0.7
- CC(=O)c1cccc(-c2ccc3c(c2)C(C)(Cc2ccccc2C#N)C(=O)N3)c1 (stereo not drawn)
  ., 2, -15, -1, ., -0.3
- CC(CCc1ccccc1)NC(=O)CN1C(=O)NC2(CCCCC2)C1=O (stereo not drawn)
  -9, 0, 0, -14, -2, -0.7
- O=P(c1ccccc1)(c1ccccc1)c1nc(-c2ccccc2)oc1N1CCOCC1
  -14, -9, -12, 1, -15, -0.7
- CCCc1nnc(NC(=O)CCC(=O)N2CCN(Cc3ccccc3)CC2)s1
  3, 2, -16, -12, -6, -0.2
- O=C1NC(Cc2ccc(O)cc2)c2nc3ccc(F)cc3c(=O)n2-c2cc(Cl)ccc21 (stereo not drawn)
  0, 5, -1, 7, ., -0.6
- COc1ccc(C(C)(C)C)cc1NC(=O)c1ccc2ncsc2c1
  15, -4, 1, 2, -3, 0.3
- CS(=O)(=O)c1ccc(Nc2nc(C(N)Cc3ccc(Cl)cc3)cs2)cc1 (stereo not drawn)
  ., -20, -7, -7, ., 1.4
- COc1ccc(C(=O)CN2C(=O)NC3(CCCCCC3)C2=O)c(OC)c1
  -8, 3, -1, 2, 6, -0.5
- CCOC(=O)CC1COCCN1C(=O)CCc1nnc(-c2ccsc2)o1 (stereo not drawn)
  3, -2, 1, -4, 0, -0.3
- Cc1cc(OCC(=O)Nc2ccccc2F)nc(C(C)C)n1
  14, 1, 25, -2, -5, 2.4
- O=C(NNC(=O)c1ccccc1Cl)c1csc(N2CCOCC2)n1
  -6, 2, 6, -18, -7, -0.7
- CCOC(=O)/C=C(\C)Sc1cc(=O)oc2ccccc12
  24, 4, 6, -16, -43, 1.9
- CCCC(C)NC(=O)c1ccccc1SC (stereo not drawn)
  -17, 4, -15, -5, 5, -0.8
- Cc1nc2ccc(S(=O)(=O)N(C)CC(=O)N3CCc4ccccc43)cc2s1
  -8, 4, 0, -14, -16, -0.2
- Nc1c(S(=O)(=O)c2cccc(Cl)c2)c2nc3ccccc3nc2n1CCN1CCOCC1
  -11, 5, 2, 5, 29, 1.1
- CCc1cc(C(=O)c2ccc(OC)cc2)c(NC(=O)COCC(=O)O)s1
  20, -5, ., 10, -5, 1.2
- CCCn1c(SCC(=O)Nc2cc(C(=O)O)ccc2C)nc2sc3c(c2c1=O)CCC3
  16, 3, -5, 0, 30, 0.6
- O=C(CNCCC1=CCCCC1)Nc1ccccc1N1CCCCCC1
  6, 6, ., -25, -18, -0.4
- CC(C)CCN1CCN(C2CCN(c3ccccc3)CC2)CC1CCO (stereo not drawn)
  -10, 14, ., -7, -5, -0.2
- CN1C(C(=O)Nc2cccc(O)c2)=CC(c2cccs2)=NS1(=O)=O
  15&-5, -9, -8, -9, 25, -0.7&-0.3
- O=C(CCC(=O)N1CCCCCC1)NCc1ccc(F)cc1
  -9, 3, -9, -4, -8, 0.8
- CN(Cc1cccc(Cl)c1)C(=O)C1CCN(C(=O)Nc2ccccc2)CC1
  19, 0, -14, -13, 5, -0.3
- Cc1cc(/C=C2\SC(=S)NC2=O)c(C)n1C
  -2, ?, 7, -20, 23, 2.2
- CCOc1cc(/C=N/N2CCN(Cc3ccccc3)CC2)ccc1O
  8, -8, -3, -16, -3, 0.4
- COc1nsnc1NS(=O)(=O)c1ccc(NC(=S)NC(=O)c2cccnc2)cc1
  24, -1, 0, -12, 9, 2.4
- CCn1ccnc1CN1CCN(CC=C(C)C)C(CCO)C1 (stereo not drawn)
  5, -6, ., -6, -1, -0.5
- COc1ccc(OC)c(NC(=O)N[C@H](Cc2ccccc2)C(=O)NN)c1
  3, 3, 6, -23, ., 0.1
- Cn1nnnc1SCC(=O)Nc1cc(S(=O)(=O)N2CCCC2)ccc1Cl
  16, 4, 8, -1, -5, -0.2
- O=C(NNC(=O)c1ccc(S(=O)(=O)N2CCCCC2)cc1)c1ccccc1
  12, -20, 0, -6, -10, -0.9
- Cc1cc(NC(=O)C(C)N2C(=O)c3ccccc3S2(=O)=O)no1 (stereo not drawn)
  -9, 0, 9, -6, 6, 0.0
- CCCCNc1cc(C)nc(N2CCOCC2)n1
  27, -1, -3, -15, 3, -0.1
- O=C(NCC(c1ccco1)N1CCN(c2ccccc2)CC1)C(=O)NC1CC1 (stereo not drawn)
  -2, 12, 2, ?, -11, 0.4
- CN(C)c1ccc(C(=O)OCc2ccccc2)cc1
  -11, 12, 19, -4, -12, 0.1
- CCn1c(COc2cccc(OC)c2)nnc1SCC(=O)NCC1CCCO1 (stereo not drawn)
  -20, 2, 6, -2, -10, -0.6
- COc1ccc(NC(=O)c2nc(C)c(C3(C)CC(c4ccccc4)=NO3)s2)cc1 (stereo not drawn)
  34, -4, 3, -11, -9, -0.4
- CCNC(=O)COC(=O)/C=C/c1cccc([N+](=O)[O-])c1
  57, 6, 5, -41, -2, 0.8
- COc1ccc(N(CC(=O)Nc2ccccc2C(=O)N2CCOCC2)S(=O)(=O)c2ccc(F)cc2)cc1
  7, 8, 0, -10, -8, 1.1
- Cc1ccc(SCc2cc(-c3ccc(Cl)cc3)on2)cc1
  15, 65, 43, -10, ?, 3.9
- O=c1c(S(=O)(=O)c2ccc(Cl)cc2)cn(Cc2ccccc2F)c2ccc(F)cc12
  -6, -8, -5, -24, -2, 0.2
- N#Cc1c(NC(=S)NC(=O)c2ccccc2)sc2c1CCC2
  16, -12, -8, -17, 14, 1.5
- O=C(/C(=N\Nc1ccc([N+](=O)[O-])cc1)Sc1nnnn1-c1ccccc1)c1ccccc1
  5, ?, ?, -18, -21, -0.2
- O=C(COC(=O)c1ccccc1Nc1ccc(SC(F)F)cc1)NCc1ccco1
  20, 5, 4, -11, -11, 1.7
- O=C(COC(=O)Cc1ccc(S(=O)(=O)N2CCOCC2)s1)Nc1ccc([N+](=O)[O-])cc1
  1, -11, ., 9, -9, -0.2
- O=c1c2ccccc2nc(SCc2cccc(F)c2)n1C1CCCC1
  42, 6, 1, 4, 6, 1.6
- Cc1cc2ccccn2c1C(=O)c1ccc(NN)c([N+](=O)[O-])c1
  0, ?, ?, -5, 5, -0.4
- Clc1ccccc1CSc1nnc(-c2ccco2)c(-c2ccco2)n1
  -8, -25, -25, -6, -2, 0.7
- CCOc1ccc(NC(=O)CN(C2CCCCC2)S(C)(=O)=O)cc1
  -6, 0, -9, -12, 9, -0.9

Structural class, the compounds so far with a furan ring, fused or not (4)
Every second line gives: TRPML1 blocker, Six1-Eya2 blk, CtBP-E1A inh, D2 potentiator, TRPV1 PAM, TRPML1 agonist
- CN1c2ccccc2-c2nc3ccccc3n2C1c1ccco1 (stereo not drawn)
  0, -2, -4, -7, -11, 0.0
- O=C(NCC(c1ccco1)N1CCN(c2ccccc2)CC1)C(=O)NC1CC1 (stereo not drawn)
  -2, 12, 2, ?, -11, 0.4
- O=C(COC(=O)c1ccccc1Nc1ccc(SC(F)F)cc1)NCc1ccco1
  20, 5, 4, -11, -11, 1.7
- Clc1ccccc1CSc1nnc(-c2ccco2)c(-c2ccco2)n1
  -8, -25, -25, -6, -2, 0.7

Further structures
Every second line gives: TRPML1 blocker, Six1-Eya2 blk, CtBP-E1A inh, D2 potentiator, TRPV1 PAM, TRPML1 agonist
- CCC1CCCCN1S(=O)(=O)c1ccc(S(=O)(=O)N2CCN(S(=O)(=O)CC)CC2)cc1 (stereo not drawn)
  -1, 3, 2, 9, -1, 0.0
- Nc1ccc2nc(CCCCCCCCc3nc4ccc(N)cc4[nH]3)[nH]c2c1
  11, -2, -23, -3, 0, 0.3
- CCc1ccccc1NC(=O)c1nnn(CC(=O)Nc2cccc(C)c2C)c1N
  2, 2, 0, 0, ., 0.1
- N#Cc1cnn2cc(-c3ncc(C(F)(F)F)cc3Cl)cnc12
  63, 4, -2, -6, 1, -0.2
- O=C(Cn1ncnn1)OCc1ccccc1Cl
  5, 11, 3, 7, 1, 0.5
- COc1cccc(/C=C(\C)C(=O)c2c(C)cc(C)[nH]c2=O)c1OC
  ., 3, -4, -5, 21, .
- CCCC/C=C/C(NC(=O)c1ccc(-c2ccccc2)cc1)c1ccccc1 (stereo not drawn)
  8, 2, 2, -15, ., -0.5
- O=C(CSc1nc(O)cc(=O)[nH]1)N1c2ccccc2Sc2ccccc21
  30, -18, -5, ?, 16, 1.0
- COc1ccc(NC(=O)C(NC(=O)CNC(C)=O)c2ccc(C)cc2)cc1 (stereo not drawn)
  -5, 6, 0, -10, -15, 0.6
- COc1ccccc1C1C(C(=O)c2ccco2)=C(O)C(=O)N1c1cc(C)on1 (stereo not drawn)
  8, 1, 1, ?, -6, 1.6
- CN(C)S(=O)(=O)c1ccc(S(=O)(=O)Nc2ccc3c(c2)oc2ccccc23)cc1
  -2, -4, -14, 1, 10, 3.5
- CSc1ccc(/C=N/Nc2nc(C)cc(=O)[nH]2)cc1
  -2, -18, ?, -4, 0, -0.9
- COc1cc(OC)cc(C(=O)NCC(=O)Nc2ccc(-c3ccccc3)cc2)c1
  -12, -12, -2, -3, 7, 7.2
- COc1ccc(Cc2c(O)nc(SCC(=O)NC34CC5CC(CC(C5)C3)C4)[nH]c2=O)cc1
  2&1, 3&-1, -1, 4&-2, 23&12, 0.0&-0.2
- Cc1cccc(C)c1NC(=O)CNC(=O)CCCN1C(=O)c2cccc3cccc(c23)C1=O
  46, -4, -19, -4, 8, 2.6
